# RanGTP-Imp inh – inhibitors of RanGTP-importin-beta interaction, primary screen, biochemical, FRET, CFP-Ran, YFP-importin-beta, homogeneous. hit rate 1.1% among 300,000. inhibition, % (no concentration beside the values). cell-free CFP-Ran/YFP-importin-beta FRET ratio. Ran GTPase (GTP-bound) - importin-beta complex;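 active means most replicates above 15%; inconclusive means exactly half above 15%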;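 further: 0% = DMSO wells and 100% = Ran loaded with GDP instead of GTP; wells of about 40 µL received 100 nL stock; the first replicate is given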
# Beta apoptosis – inhibitors of cytokine-induced beta cell apoptosis, primary screen, luminescence | AID 435005, 2010 | hit rate 0.8% among 300,000 | protection from apoptosis, % (test concentration not listed) | INS-1E cytokine-induced death, ATP luminescence, 48 h; percent of positive-control rescue, neutral wells zero;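 active means all replicates at 75% or more, or half of them and the mean; inconclusive means half reach 75% but not the mean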;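 further: 0% = cytokine-treated negative control wells and 100% = positive control rescue; higher means more ATP so stronger rescue from cytokine killing; wells of about 40 µL received 100 nL stock; the first replicate is given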
# UCH37 inh – inhibitors of human UCH37 deubiquitinase, primary screen, biochemical, Ub-AMC cleavage, fluorescence; purified proteasome/UCH37; inhibition, % (test concentration not listed); hit rate 0.33% among 330,000;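 active means mean of two replicates above 20%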;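 further: 0% = compound-free wells with enzyme and 100% = wells lacking proteasome; stock transfer was 100 nL into about 20 µL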
# Target sequence (Q9Y5K5 whole entry, looked up): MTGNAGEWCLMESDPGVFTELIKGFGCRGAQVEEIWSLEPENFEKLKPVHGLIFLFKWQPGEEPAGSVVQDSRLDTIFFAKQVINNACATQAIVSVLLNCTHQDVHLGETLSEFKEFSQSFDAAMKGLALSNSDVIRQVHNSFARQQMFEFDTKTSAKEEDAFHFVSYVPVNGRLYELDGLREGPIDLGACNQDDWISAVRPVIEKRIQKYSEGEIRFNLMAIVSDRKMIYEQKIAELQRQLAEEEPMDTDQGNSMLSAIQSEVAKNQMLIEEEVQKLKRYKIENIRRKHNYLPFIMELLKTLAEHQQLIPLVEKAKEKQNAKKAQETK
#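 Assay system: Proteasome-bound UCH37. Buffer or medium: pH 7.4 Tris-HCl (50 mM) with ovalbumin, ATP-MgCl2, DTT. Incubation: 30 min preincubation with enzyme, 25 min cleavage at room temperature. Measured by: fluorescence, ex 355 nm, em 460 nm. Read-out basis: percent inhibition. Control set: wells without proteasome as full block, compound-free enzyme plus substrate as uninhibited.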
# LANA-H2B inh – blockers of LANA interaction with H2A/H2B – biochemical, FP readout, HTS, primary screen; inhibition, % (test concentration not listed); hit rate 0.6% among 320,000; AID 2629, 2010; Protein LANA1 (Human herpesvirus 8 type P (isolate GK18)), Q9QR71; cell-free LANA-H2A/H2B peptide, fluorescence polarization; in the data active means inhibition mostly above about 10%, no sharp cut-off; inactive means mostly below about 6.7%;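 further: stock transfer was 7.5 nL into about 10 µL; 0% = median of vehicle wells and 100% = median of positive control wells; one replicate is shown; the record names a cut of 25% in any replicate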
# Beta2AR agonist – beta2AR agonists driving receptor internalization, primary screen, cell-based, FAP fluorogen, flow cytometry; Beta-2 adrenergic receptor (Homo sapiens), P07550; Am2.2-beta2AR cells; reference of the scale not given here; response, % (test concentration not listed); hit rate 0.43% among 340,000; AID 504454, 2011;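 active means response above a set limit, near 3 SD of response in nonfluorescent compounds, cut at about 42% in these data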;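 further: stock transfer was 100 nL into about 11 µL; a reference agonist was the positive control; negative values mostly stem from fluorescent compounds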
# Target sequence (P07550 whole entry, looked up): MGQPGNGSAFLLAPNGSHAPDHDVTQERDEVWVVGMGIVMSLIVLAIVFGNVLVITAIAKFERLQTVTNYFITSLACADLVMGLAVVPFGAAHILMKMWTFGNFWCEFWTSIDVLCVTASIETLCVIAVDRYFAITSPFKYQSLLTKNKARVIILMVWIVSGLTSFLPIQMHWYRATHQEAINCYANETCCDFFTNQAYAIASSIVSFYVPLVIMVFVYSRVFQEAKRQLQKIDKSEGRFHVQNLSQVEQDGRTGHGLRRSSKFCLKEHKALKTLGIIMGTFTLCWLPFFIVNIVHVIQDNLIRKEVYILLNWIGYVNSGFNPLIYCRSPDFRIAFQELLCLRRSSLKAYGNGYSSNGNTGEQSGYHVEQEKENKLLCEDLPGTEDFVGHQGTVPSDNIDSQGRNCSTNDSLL
# T cruzi inh – inhibitors of intracellular T. cruzi growth, primary screen, luminescence, NIH3T3 host cells; inhibition, % (concentration not given with the values); T. cruzi beta-gal in NIH3T3, 90 h; hit rate 1.4% among 300,000;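 active means mean inhibition across valid replicates above about 55%, limit read from the data; inconclusive means mean below that limit but half or more replicates reach it; inactive means mean below it, under half of replicates reach it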;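 further: signal also drops with host cell toxicity which is not excluded here; 0% = plate median of DMSO wells and 100% = zero luminescence signal; higher percent means less beta-gal luminescence so fewer parasites; stock transfer was 50 nL into about 50 µL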
# Calb FLC – C. albicans growth inhibition with fluconazole, primary screen, CaCi-2 strain, Alamar Blue fluorescence. C. albicans CaCi-2 (fluconazole-resistant clinical isolate) + fluconazole, 48 h. growth inhibition, % (test concentration not listed). hit rate 0.57% among 300,000. AID 1979, 2009;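 active means most replicates above 75%; inconclusive means exactly half above 75%; inactive means most below 75%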;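 further: all wells also contain fluconazole at 8 µg/ml as a sub-toxic cotreatment; 0% = median of DMSO wells and 100% = median of geldanamycin control wells; wells of about 8 µL received 7.5 nL stock; the first replicate is given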
# A1 inh – caspase 3/7 activation in MEF A1-2A-BIM cells, primary screen, A1 inhibitor project, cell-based, luminescence, HTS; Caspase-Glo 3/7 luminescence, 3 h; percent of clofoctol response, vehicle zero; caspase activation, % (no concentration beside the values); hit rate 0.066% among 330,000; AID 2462, 2010;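 active means over half of replicate activation scores above 10%, or exactly half above 10 with the replicate mean above 10; inconclusive means replicate mean below 10 yet half the replicates above 10; inactive means over half of replicates below 10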;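 further: wells of about 30 µL received 50 nL stock; many hits fall short of the cut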
# The depositor's hits bear a star; ? = inconclusive; · = no result given. Random draw from the library, and some 4.3% of all compounds hit somewhere here.
no.	canonical_smiles	RanGTP-Imp inh	Beta apoptosis	UCH37 inh	LANA-H2B inh
1	BrC(=C\c1ccccc1)/C=N/Nc1nc2ccccc2[nH]1	1.6	1	·	-6.1
2	Cc1[nH]n(-c2ccccc2)c(=O)c1C=Nc1cnc2ccccc2c1	-2.1	0	-18	5.3
3	CC(C)C[C@@]12C(=O)N(c3cccc(F)c3)C(=O)N1[C@H](c1ccc(F)cc1)[C@@H]1C(=O)N(C3CCCCC3)C(=O)[C@@H]12	1.0	2	3.4	-0.1
4	OC(CNCc1cccnc1)COc1ccc2ccccc2c1 (stereo not given)	-1.7	-7	6.8	-2.9
5	SC(COCc1ccccc1)CN1CCN(Cc2ccc3c(c2)OCO3)CC1 (stereo not given)	-1.7	6	·	-4.8
6	Nc1nc(N)nc(-c2cc(C(F)(F)F)ccc2Cl)n1	·	-2	1.2	8.5
7	CN(C)c1ccc(C2/C(=C(/O)c3ccccc3)C(=O)C(=O)N2CCCC(=O)O)cc1 (stereo not given)	4.4	-5	10	2.4
8	O=S(=O)(c1ccc2c(c1)OCCO2)N1CCC(c2nc3ccc(Cl)cc3[nH]2)CC1	-0.4	15	2.6	5.8
9	COc1ccc(OC)c(Nc2cc(C)c3ccccc3n2)c1	5.6	·	-41	0.9
10	Cc1c(C(=O)O)cccc1-c1ccc(/C=C2/NC(=O)N(c3ccccc3)C2=O)o1	3.0	-2	-5.6	0.2
11	S=c1[nH]nc(C2COc3ccccc3O2)o1 (stereo not given)	-2.2	-5	-2.2	0.5
12	Cc1ccc(NC(=S)NCc2ccc(S(N)(=O)=O)cc2)c(C)c1	-0.9	·	-0.2	-2.0

no.	Beta2AR agonist	T cruzi inh	Calb FLC	A1 inh
1	4	-17	-5	-0.6
2	-9	-8	-2	-1.7
3	-4	-19	4	0.0
4	-3	3	-1	1.9
5	1	55*	1	0.1
6	-12	·	·	-0.7
7	7	-7	-19	-0.1
8	21	26	46	-0.7
9	-5	45	-13	-1.0
10	20	-3	20	-6.3
11	-4	-9	-13	-0.6
12	3	-9	2	-1.1

# (listing goes on)
no.	canonical_smiles	RanGTP-Imp inh	Beta apoptosis	UCH37 inh	LANA-H2B inh
13	O=S(N1CCc2ccccc21)C12CC3CC(CC(C3)C1)C2 (stereo not given)	3.0	-8	1.4	-1.1
14	COc1ccc(NCc2cc(=O)oc3cc(NC(C)=O)ccc23)cc1	?	2	-7.4	6.2
15	COc1ccc(CC(=O)NC(C)c2nnc(SCc3nc4ccccc4c(=O)[nH]3)n2C)cc1 (stereo not given)	-2.4	8	-5.7	-2.0
16	CC(C)(C)NC(=O)CN(C(=O)Cn1nnc(-c2ccccc2F)n1)c1cccc2c1CCCC2	-3.0	3	2.6	-4.2
17	Cc1cc2oc(=O)cc(Cn3ccnc3)c2cc1C	2.3	2	-11	-2.5
18	Cc1cc(C)c(C)c(S(=O)(=O)NCc2cccnc2)c1C	?	-1	4.2	-5.2
19	Cc1ccc(N(C(=O)CNC(=O)c2ccco2)C(C(=O)NC2CCCCC2)c2ccncc2)c(C)c1 (stereo not given)	-4.6	-4	-1.3	-2.8
20	COc1ccc(C(C)=O)cc1COC(=O)c1ccc2c(c1)OCO2	1.5	-3	4.6	1.0
21	O=Cc1c(NCc2cccc(F)c2)c2ccccc2[nH]c1=O	-1.1	1	4.8	1.0
22	O=C(COC(=O)c1ccc(Br)o1)Nc1nc2ccccc2s1	2.3	5	-1.0	0.1
23	CCOCCCNC(=O)/C=C1\Sc2ccccc2N(Cc2ccccc2F)C1=O	-3.4	-14	-8.3	2.3
24	C[C@@H]1CC[C@H]2C(=O)N3[C@@H](CC[C@@H](C)[C@@H]3c3ccc(Br)cc3)C(=O)N2[C@H]1c1ccc(Br)cc1	5.3	1	-1.0	2.0

no.	Beta2AR agonist	T cruzi inh	Calb FLC	A1 inh
13	5	2	5	1.2
14	-3	0	-9	1.8
15	-2	10	1	1.5
16	17	15	21	0.0
17	-2	5	7	0.9
18	6	-6	16	-0.5
19	-7	-1	14	-0.3
20	-10	-9	-13	0.8
21	0	-5	1	0.1
22	11	6	-4	-0.5
23	2	3	-1	0.1
24	8	13	8	-0.8

# Brought forward from above: five compounds, followed by the next part.
no.	canonical_smiles	RanGTP-Imp inh	Beta apoptosis	UCH37 inh	LANA-H2B inh
20	COc1ccc(C(C)=O)cc1COC(=O)c1ccc2c(c1)OCO2	1.5	-3	4.6	1.0
21	O=Cc1c(NCc2cccc(F)c2)c2ccccc2[nH]c1=O	-1.1	1	4.8	1.0
22	O=C(COC(=O)c1ccc(Br)o1)Nc1nc2ccccc2s1	2.3	5	-1.0	0.1
23	CCOCCCNC(=O)/C=C1\Sc2ccccc2N(Cc2ccccc2F)C1=O	-3.4	-14	-8.3	2.3
24	C[C@@H]1CC[C@H]2C(=O)N3[C@@H](CC[C@@H](C)[C@@H]3c3ccc(Br)cc3)C(=O)N2[C@H]1c1ccc(Br)cc1	5.3	1	-1.0	2.0
25	COc1ccc(-n2c(=O)c3ccccc3n(CC(=O)NC3CCCCC3)c2=O)cc1	6.8	2	-0.3	0.4
26	N#Cc1ccccc1COC(=O)c1cccnc1N	-1.1	-9	-164	0.9
27	Cc1cccc(C)c1OCc1cc(C(=O)N(C)CCc2ccccn2)no1	0.0	-9	1.3	-8.4
28	O=C(O)C(Cc1c[nH]c2ccccc12)NS(=O)(=O)c1cccc(Cl)c1Cl (stereo not given)	6.0	-4	1.3	-2.6
29	N#CC(C#N)=C1c2cc(S(=O)(=O)NCCO)ccc2-c2ccc(S(=O)(=O)NCCO)cc21	2.5	1	2.6	-6.3
30	NC(=O)C[n+]1cccc2ccccc21	-137	-9	-14	7.9
31	C=CCn1cc(/C=C2\SC(N3CCOCC3)=NC2=O)c2ccccc21	9.9	-17	4.6	2.8
32	O=C(NNC(=O)c1ccco1)c1csc(N2CCOCC2)n1	7.7	-8	0.9	9.4
33	CNC(=O)C1CCN(S(=O)(=O)c2c(C)noc2/C=C/c2ccccc2F)CC1	-5.3	1	-9.1	17
34	CCCc1cc(-n2ccnc2C)n2c(nc3ccccc32)c1C#N	5.6	5	-14	2.0
35	O=C(Nc1ccc2c(c1)OCO2)C1CC(c2ccc(Cl)cc2)=NO1 (stereo not given)	8.4	-4	0.4	-3.0
36	Cc1onc(-c2ccccc2Cl)c1C(=O)Nc1ccc(Br)cc1	0.0	1	1.3	-4.4

no.	Beta2AR agonist	T cruzi inh	Calb FLC	A1 inh
20	-10	-9	-13	0.8
21	0	-5	1	0.1
22	11	6	-4	-0.5
23	2	3	-1	0.1
24	8	13	8	-0.8
25	-2	-3	0	-0.2
26	1	-3	-15	-0.2
27	-8	13	1	0.2
28	-5	-16	-4	0.9
29	4	-25	-1	0.8
30	-6	-7	1	-0.2
31	5	10	1	0.4
32	-2	-11	-2	-0.7
33	-11	3	1	0.6
34	-2	16	-12	-1.5
35	-2	19	-1	0.3
36	3	6	-5	0.8

# Further records.
no.	canonical_smiles	RanGTP-Imp inh	Beta apoptosis	UCH37 inh	LANA-H2B inh
37	CCCNC(=O)c1ccccc1NC(=O)c1cccc(-n2cnnn2)c1	·	-4	-23	1.9
38	O=C(NC1CC2CCCC(C1)N2CC(=O)N1CCCc2ccccc21)C1CCCCC1 (stereo not given)	3.7	·	1.6	-1.8
39	CC(C)(C)n1ncc2c(=O)n(CC(=O)NCc3ccc(F)cc3)cnc21	4.5	0	0.3	-2.7
40	CC12C(=O)N(c3nccs3)C(=O)C1C1C=CC2C1 (stereo not given)	2.3	9	1.0	6.1
41	CC(=Nc1ccc(C)cc1C)c1sc2ccccc2c1O	42*	1	2.9	-3.6
42	CC(C)Oc1ccccc1C1CC(=O)Nc2cc3c(cc21)OCO3 (stereo not given)	0.1	34	3.5	-7.9
43	COc1cc(NC(=O)NC2Cc3ccccc3C2)cc(OC)c1	1.1	-7	3.0	-3.1
44	CC1(C)Cc2c(ccc3ccccc23)C(c2cc3ccccc3oc2=O)=N1	6.1	-6	2.7	0.8
45	Cc1ccc2cc(CN(C(=O)c3cccnc3)C(C)C)c(=O)[nH]c2c1	1.3	2	-7.0	-0.2
46	Cc1ccc(Cl)cc1NC(=S)N1CCCCCC1	·	-7	2.2	-1.1
47	Cc1cc(C(=O)OCC(=O)Nc2ccccc2)c(C)o1	-1.4	1	2.5	3.3
48	CN(C(=S)NCCN1CCOCC1)C(c1ccccc1)c1ccccc1	1.5	-9	2.4	0.8

no.	Beta2AR agonist	T cruzi inh	Calb FLC	A1 inh
37	6	·	·	0.5
38	1	-10	0	1.8
39	-2	1	-2	-0.1
40	0	-16	13	0.2
41	10	33	-15	-7.3
42	25	31	-2	0.6
43	-11	-3	0	-1.6
44	6	44	-42	1.7
45	0	-17	-17	1.6
46	-6	·	-2	-0.4
47	1	1	-26	-0.4
48	-2	-8	-1	0.4

# The results go on.
no.	canonical_smiles	RanGTP-Imp inh	Beta apoptosis	UCH37 inh	LANA-H2B inh
49	CC1(C)C(=O)OC(c2cccn2-c2ccc([N+](=O)[O-])cc2)C2(CCCCC2)C1=O (stereo not given)	-0.1	6	6.7	1.6
50	COCCN(CCOC)C(=S)Nc1ccccc1	-1.2	-4	-1.6	-0.4
51	CC(Oc1ccc2c3c(c(=O)oc2c1)CCC3)C(=O)NC1CCN(Cc2ccccc2)CC1 (stereo not given)	-0.4	3	-14	-1.2
52	Cn1c(N)c(C(=O)COC(=O)c2cc(-c3ccco3)nc3ccccc23)c(=O)n(C)c1=O	4.7	·	-26	·
53	CC(C)(Cc1cccc(CC(C)(C)C(=O)O)c1)C(=O)O	2.5	-3	1.8	-2.7
54	O=c1cc(CO)oc(C(Nc2ccccn2)c2ccc(F)cc2)c1O (stereo not given)	3.9	-14	2.5	2.1
55	Cc1cc(NC(=O)/C=C/c2ccccc2)c(C(C)C)cc1O	-0.6	-5	0.4	4.7
56	CC1CCCCC1NC(=O)CCN1C(=O)C2C3C=CC(C3)C2C1=O (stereo not given)	-2.1	4	0.7	-0.6
57	Cc1cccc2nc3ccccc3nc12	?	-2	-15	0.1

no.	Beta2AR agonist	T cruzi inh	Calb FLC	A1 inh
49	2	-6	32	0.9
50	4	-11	5	-0.4
51	-7	41	-7	-0.3
52	13	3	6	·
53	-4	1	-7	0.0
54	15	-20	-35	0.8
55	1	-2	-2	0.5
56	-5	-15	-9	1.3
57	6	-10	10	0.5

# High-throughput results deposited in PubChem by several laboratories.
